MT1-MMP act inh = MT1-MMP (human) activation inhibition; 0.061% of 360,000 active; AID 651647; GFP/RFP ratio change, % at 20 µM; P50281; HT1080 RFP-PRO-GFP cells, GFP/RFP ratio fluorescence, overnight; percent of plate control window, DMSO zero;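 active = GFP/RFP ratio change of at least 30% with cell ATP level not reduced by more than half and red fluorescence within 50% of control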; also: strong numbers were not always called active
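Assay system: RFP-PRO-GFP reporter HT1080 cells; read-out basis: GFP/RFP fluorescence ratio; benchmarks: DMSO wells and RFP-L50D-GFP cells; doses: 20 µM single dose, 1% DMSO; schedule: overnight cell settling, then overnight compound exposure, 37 °C, 5% CO2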
Env fusion inh = blocks HIV Env-driven cell-cell fusion. HeLa-JRFL Env/CEM21 cell fusion, luciferase. inhibition, % at 12.3 µM. 1.1% of 360,000 active;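 active = mean replicate inhibition score of at least 50 and every replicate individually at or above 50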;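 also: 0% = plate neutral controls and 100% = maraviroc near 300 nM; one replicate is shown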
MT1-MMP act inh RFP = further read-out of MT1-MMP act inh, marked with its call; RFP signal change, %; measured here: RFP expression control read;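 0 = vehicle wells; hits needed this value within 50% of zero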
* = called active by the depositor. This is a subset; rates above refer to the full screens.

1. CC(C)C[C@@H](COCc1cccc(C(F)(F)F)c1)N1CCN(C(=O)c2ccc(C(F)(F)F)cc2)CCC1=O
2. COc1cccc(CNC(=O)[C@@H]2CCCN2C(=O)[C@@H]2CCCN2C(=O)c2cccc3ccccc23)c1
3. COc1ccc(CCC(=O)N2c3ccccc3N=C(c3ccc4c(c3)OCO4)C2C(=O)NCc2ccccc2)cc1 (stereo not given)
4. CC(=O)Nc1ccc2c(c1)C(=Nc1cccc(C)c1)c1ccccc1-2
5. O=C(NCc1ccccc1)C(c1ccc(-c2ccccc2)cc1)N1CCN(CCN2CCOCC2)CC1 (stereo not given)
6. CCOC(=O)[C@]12Cc3c(cc(OC)c(OC)c3OC)[C@H]1N(C1CCCCC1)C(=O)c1cc(OC)ccc12
7. Cc1cccc(COC[C@H](Cc2ccccc2)N2CCN(C(=O)c3cccc(C)c3)CCC2=O)c1
8. CC(C)C[C@@H](CN1CCCC1CN1C(=S)NC[C@@H]1Cc1ccccc1)N1C[C@H](Cc2ccccc2)N(CC2CCCCCC2)C1=S (stereo not given in full)

assay / entry	1	2	3	4	5	6	7	8
MT1-MMP act inh RFP	-17	1	-8	-1	2	-32	-5	-7
MT1-MMP act inh	-10	4	-11	1	1	-19	1	4
Env fusion inh	62*	3	-141	-10	-30	2	21	10

9. Oc1ccc2ccccc2c1/C=C/c1ccc2c(Br)cc(Br)c(O)c2n1
10. CC12CCC(CC1O)C2C(=O)O (stereo not given)
11. CC(=O)OC(C)C1C2=C(C(=O)CC1(C)O)C(=O)c1c(ccc(-c3ccc4c(c3O)C(=O)C3=C(C4=O)C(C(C)OC(C)=O)C(C)(O)CC3=O)c1O)C2=O (stereo not given)
12. COC(=O)C1=CN(c2ccc(OC)cc2)C(N)=C(C#N)C1c1ccc(OC)cc1 (stereo not given)
13. CCOc1cc(OCC)cc(C(=O)N2CCC[C@@H]2C(=O)N2CCC[C@H]2C(=O)NCc2ccncc2)c1
14. CCOC(=O)c1ccc(NC(=S)P(=O)(c2ccccc2)c2ccccc2)cc1
15. CC1(CN2CCCC2)CCC(NC(=O)C(c2ccccc2)c2ccccc2)C(C)(C)O1 (stereo not given)
16. O=C(c1ccoc1)N1CCN(c2cc(-c3ccncc3)nc3cc(-c4cccc(Cl)c4)nn23)CC1

assay / entry	9	10	11	12	13	14	15	16
MT1-MMP act inh RFP	15	1	-11	3	3	2	2	-12
MT1-MMP act inh	2	3	0	4	5	3	3	-13
Env fusion inh	28	-20	31	-20	2	-13	-24	5

17. CCCCNC(=O)C1C(c2ccccc2)=Nc2ccccc2N1C(=O)c1ccc(C(F)(F)F)cc1 (stereo not given)
18. COc1ccc(N=C2c3ccccc3-c3ccc([N+](=O)[O-])cc32)cc1
19. Cc1sc(N=Nc2ccc(N(C)C)cc2)[n+]([O-])c1C
20. CCN(CC)CCOC(=O)c1ccc(N=CC2=C(O)CC(C)(C)CC2=O)cc1
21. COCCN1C(=O)CCC1(C)c1nnnn1Cc1ccccc1 (stereo not given)
22. CN(C)c1ccc(C(=N)Cc2ccc3ccccc3n2)cc1
23. Cc1ccc([C@@]2(OC(=O)c3ccccc3)C(=O)N(C(=O)OC(C)(C)C)c3ccccc32)cc1
24. COc1ccccc1C(=O)NCCN1CCC(n2c(=O)[nH]c3ccccc32)CC1

assay / entry	17	18	19	20	21	22	23	24
MT1-MMP act inh RFP	-32	-6	5	2	3	8	-4	-2
MT1-MMP act inh	-29	6	7	0	0	-20	-2	1
Env fusion inh	-5	-38	-49	9	-20	-2	-11	9

6 entries out of the list, ordered by heavy-atom count, high to low.
17. CCCCNC(=O)C1C(c2ccccc2)=Nc2ccccc2N1C(=O)c1ccc(C(F)(F)F)cc1 (stereo not given)
23. Cc1ccc([C@@]2(OC(=O)c3ccccc3)C(=O)N(C(=O)OC(C)(C)C)c3ccccc32)cc1
20. CCN(CC)CCOC(=O)c1ccc(N=CC2=C(O)CC(C)(C)CC2=O)cc1
21. COCCN1C(=O)CCC1(C)c1nnnn1Cc1ccccc1 (stereo not given)
22. CN(C)c1ccc(C(=N)Cc2ccc3ccccc3n2)cc1
19. Cc1sc(N=Nc2ccc(N(C)C)cc2)[n+]([O-])c1C

assay / entry	17	23	20	21	22	19
MT1-MMP act inh RFP	-32	-4	2	3	8	5
MT1-MMP act inh	-29	-2	0	0	-20	7
Env fusion inh	-5	-11	9	-20	-2	-49

(continued)
25. COC(=O)[C@]12CCCCC=C1N(Cc1ccc3c(c1)OCO3)C(=O)[C@H](CC(=O)NCc1ccc(OC)c(OC)c1)C2
26. COC(=O)[C@]12CCCCC=C1N(Cc1ccc(Cl)cc1Cl)C(=O)[C@H](CC(=O)NCCC(C)C)C2
27. COc1cccc(C(=O)NCCNc2nc3cc(C)cc(C)c3cc2C#N)c1
28. CCOC(=O)[C@]12CCC=C1N(Cc1ccc(Cl)cc1Cl)C(=O)[C@H](CC(=O)N1CCC(c3ccccc3)CC1)C2
29. O=C(Cc1ccc(Br)cc1)OCC(=O)N1CCCCCC1
30. CCOC(=O)c1cc2c(=O)n3ccccc3nc2n(Cc2ccc(Cl)cc2)c1=N
31. O=c1nc2onnc2c(C=NO)[nH]1
32. COc1ccc(CCN2C(=O)CCC2(C)c2nnnn2-c2ccc3c(c2)OCCO3)cc1OC (stereo not given)

assay / entry	25	26	27	28	29	30	31	32
MT1-MMP act inh RFP	-2	-12	-1	-8	5	3	3	-1
MT1-MMP act inh	-4	-12	8	-6	2	-2	0	0
Env fusion inh	5	20	-24	4	19	-9	-11	33

33. O=C(NCC(F)(F)F)C1C(=O)Nc2ccccc2C(=O)N1Cc1ccccc1 (stereo not given)
34. CN(C)c1ccc2c(=O)cc[nH]c2c1
35. CCCCCCCCCc1conc1C(=O)CP(=O)(OC)OC
36. COC(=O)[C@@]12C[C@@H](CC(=O)NCC3CCCCC3)C(=O)N(Cc3ccccc3)C1=CCC(C)(C)C2
37. CC[N+]1(C)CCC(O)(c2ccc(OC)cc2)C(C(=O)c2ccc(OC)cc2)C1 (stereo not given)
38. CC(C)C(NC(=O)OCc1ccccc1)C(=O)NC(Cc1c[nH]c2ccccc12)C(=O)O (stereo not given)
39. CN1C(=O)CC2(C)C1=CCc1scnc12 (stereo not given)
40. C[N+](C)(C)CCC(=O)N1C/C(=C/c2ccccc2)C(=O)/C(=C\c2ccccc2)C1

assay / entry	33	34	35	36	37	38	39	40
MT1-MMP act inh RFP	1	5	-3	-6	-2	-1	2	1
MT1-MMP act inh	-4	4	2	-2	-3	-2	2	12
Env fusion inh	23	5	20	-24	24	11	9	-12

Only Env fusion inh (2 entries from above):
| cpd | SMILES | Env fusion inh |
| --- | --- | --- |
| 38 | CC(C)C(NC(=O)OCc1ccccc1)C(=O)NC(Cc1c[nH]c2ccccc12)C(=O)O (stereo not given) | 11 |
| 39 | CN1C(=O)CC2(C)C1=CCc1scnc12 (stereo not given) | 9 |

More entries follow.
41. NC(=S)NN=C1CCC2(CCCCC2)CC1
42. COc1cc(C2c3cc4c(cc3OC(C)(N3CCCC3)C2C)OCO4)cc(OC)c1OC (stereo not given)
43. CCOC(=O)[C@]12CCC=C1N(Cc1cccc3ccccc13)C(=O)[C@H](CC(=O)N1CCSCC1)C2
44. CC(C)=CCNc1ncnc2c1c(C#N)cn2C1OC(CO)C(O)C1O (stereo not given)
45. CCCCn1nnnc1C(c1ccccc1)N1CCN(c2c(Cl)cncc2Cl)CC1 (stereo not given)
46. COC(=O)[C@@]1(Cc2ccc(F)cc2)[C@H]2c3cc(C(=O)N4CCCC4)n(CCSCCO)c3C[C@H]2CN1C(=O)c1ccccc1
47. CCOC1CCCc2oc(-c3ccc(N(C)C)cc3)c(C(=O)OC)c21 (stereo not given)
48. COCCCN1C(=O)C(CC(=O)NCCN2CCOCC2)CC(C(=O)N2CCCCCC2)=C1C (stereo not given)

assay / entry	41	42	43	44	45	46	47	48
MT1-MMP act inh RFP	2	3	5	0	-13	-1	-7	6
MT1-MMP act inh	1	20	1	-2	-12	-3	-8	3
Env fusion inh	-1	-358	-44	58*	11	-37	-9	3

49. CCCc1c(-c2ccc(F)cc2)ncn1Cc1ccccc1OC
50. CCCc1c(-c2ccccc2F)ncn1CCc1ccccc1OC
51. Brc1ccc(-c2nc3c4ccccc4ccn3c2Cc2ccccc2)cc1
52. O=c1cc(Cc2ccc([N+](=O)[O-])cc2)[nH]c(=O)[nH]1
53. CCCCOCCCNC(=O)C[C@@H]1C[C@@]2(C(=O)OCC)CCCC=C2N(Cc2ccco2)C1=O
54. Cc1cc2c(=O)cc(-c3ccccc3)oc2c(C(=O)O)c1C
55. CC(C)CCN1C(=O)c2ccccc2C1c1nnnn1C(C)C (stereo not given)
56. CCCCC1Cc2[nH]c(=S)[nH]c(=O)c2C(c2ccc(C(C)C)cc2)O1 (stereo not given)

assay / entry	49	50	51	52	53	54	55	56
MT1-MMP act inh RFP	-22	-27	-8	3	4	1	-1	-7
MT1-MMP act inh	-2	-5	-9	0	7	1	3	1
Env fusion inh	-16	6	-6	2	-68	5	-302	-265

57. O=C(NCCCOc1ccc([N+](=O)[O-])cc1Cl)OCc1ccccc1
58. C[n+]1cccc(NC(=O)c2ccccc2)c1
59. O=C(NN=Cc1ccccc1)C(Oc1ccccc1)c1ccccc1 (stereo not given)
60. COC(=O)[C@]12CCCCC=C1N(CCc1ccc(OC)c(OC)c1)C(=O)[C@H](CC(=O)NCc1cccc3ccccc13)C2
61. CC1=C(C(=O)N2CCCCCC2)CC(CC(=O)NCCc2ccccn2)C(=O)N1CCC1=CCCCC1 (stereo not given)
62. CC1=C(C(=O)N2CCCCCC2)CC(CC(=O)NCCCN(C)C)C(=O)N1CCCN1CCCC1=O (stereo not given)
63. COc1ccc(CN2C(=O)c3ccccc3C2c2nnnn2C(C)C)cc1 (stereo not given)
64. CCCCCC(=O)N1C[C@H](O)[C@@H](n2cc(-c3ccc(F)cc3)nn2)C[C@@H]1c1ccccc1

assay / entry	57	58	59	60	61	62	63	64
MT1-MMP act inh RFP	2	4	0	-10	3	9	4	10
MT1-MMP act inh	2	3	4	-11	4	8	3	3
Env fusion inh	-10	1	-22	-16	38	11	7	-21

Source: PubChem BioAssay
